# Vaccinia Venus: vaccinia inhibition (Venus reporter) | Vaccinia virus Venus reporter expression, fluorescence | Potency, µM (doses to about 36.5 µM), for the others: at the highest dose activity change, negative = inhibition, hits mostly inhibitors | 330,000 compounds, 0.46% hits | AID 720580; active means well fitted inhibition curve with a large enough effect; inconclusive means small, poorly fitted or top-dose-only effect; inactive means no such curve, though single readings can be large or run the other way; tested in A549 cells; note: nearly all actives have a fitted effect of over 30% in size; inactives centre near -10
# Vaccinia mCherry: inhibitors of vaccinia virus infection (mCherry reporter signal) | Potency, µM (top dose mostly 36.5 µM), for inactives: top-dose activity change, negative = inhibition, hits mostly inhibitors | AID 720579 | Vaccinia virus mCherry reporter infection, fluorescence; about a quarter of the inactives have no number | 310,000 compounds, 0.63% hits; active = well fitted inhibition curve with a large enough effect; inconclusive = small, poorly fitted or top-dose-only effect; inactive = no such curve, though single readings can be large or run the other way; tested in A549 cells; note: nearly all actives have a fitted effect of over 35% in size; inactives centre near -10
# * marks the source's active call; other numbers are inactive results; i = inactive; u = inconclusive; x = not tested or not shown; & = joins results of further samples; [ ] = another dose, or the depositor's remark. % is set by controls: 0 for no effect and ±100 for the full control effect; potency is the fitted concentration of half-maximal effect.
SMILES,Vaccinia Venus,Vaccinia mCherry
CC(O)CNc1nc2ccccc2n1-c1ncnc2sc3c(c12)CCC3 (stereo not given),u,u
Cc1ccc(NC(=O)c2noc3c2CCC3)cc1C,-13%,-1%
CCOc1cc(Cl)c(S(=O)(=O)n2ccnc2)cc1Cl,1%,9%
CC1=C(C(=O)Nc2ccccc2Cl)C(c2cccc(O)c2)n2ncnc2N1 (stereo not given),-4%,-10%
O=c1nc(NO)ccn1C1CCCO1 (stereo not given),-4%,i
COc1ccc(S(=O)(=O)N2CCN(c3ccc(F)cc3)CC2)cc1C(=O)N1CCOCC1,-1%,-5%
Cc1ccc(NC(=O)Nc2c(C)[nH]c(=O)[nH]c2=O)cc1Cl,-4%,-17%
Cc1ccc2c(c1)c1c(c(=O)n(-c3ccccc3C)c(=O)n1CC(=O)N1CCCC1)n2C,-13%,-19%
CCOC(=O)c1ccc(NC(=O)c2c(Cl)cc(C)nc2C)cc1,-13%,i
CC(C)C[C@@H]1NC(=O)[C@H](Cc2ccccc2)N(C)C(=O)[C@H](C)NC(=O)c2ccccc2NC(=O)[C@H](Cc2ccc(O)cc2)N(C)C1=O,-24%,u
COC(=O)C1=C(C(=O)OC)[C@@H]2N(Cc3ccccc3)c3ccccc3[C@@]23C[C@@H](C(=O)OC)N(C(C)=O)C3=N1,-18%,u
CCCCOC(=O)C1=C(N)N2C(=O)C(C)SC2=C(C(=O)OCC)C1c1ccc(O)c(OC)c1 (stereo not given),-14%,u
Cc1ccc([N+](=O)[O-])cc1N(CC(=O)NCC1CCCO1)S(C)(=O)=O (stereo not given),-13%,-6%
NC(=NC(=O)c1ccccc1)C1=C(O)CCC1=O,-17%,x
CC1(C)Cc2ccccc2C(NN=C2CCCC2)=N1,-20%,-5%
O=C(CN1CCC2(CC1)OCCO2)c1c[nH]c2ccccc12,0%,x
CC1=C(C#N)C(NC(=O)c2ccco2)(C(F)(F)F)C(=O)N1 (stereo not given),-3%,-5%
CCOC(=O)c1ccccc1NC(=O)CN(c1ccccc1OC)S(C)(=O)=O,-10%,i
CCOC(=O)N1CCc2c(sc(NCc3ccc(N(CC)CC)cc3)c2C(=O)Nc2cc(OC)ccc2OC)C1,12%,3%
CC1=CC(C)C(C(=O)O)C(C(=O)Nc2cccnc2)C1 (stereo not given),-4%,-14%
Cc1ccccc1NC(=O)CSc1nc2ccccc2c(=O)n1C,-16%,-13%
COc1ccc2cc(CNCc3ccccc3Cl)c(N3CCCC(CO)C3)nc2c1 (stereo not given),8%,-6%
O=C1CC(c2ccccc2)CC(O)=C1C=NCCN1CCN(C(=O)Cc2ccccc2)CC1 (stereo not given),-20%,-20%
COC(=O)[C@]1(C)N[C@H](c2ccc(SC3CCCCC3)c(OC)c2)[C@@H]2C(=O)N(C)C(=O)[C@@H]21,-12%,-5%
Cc1cccc(C)c1NC(=O)C(c1ccccc1)N1CCC(Cc2ccccc2)CC1 (stereo not given),1%,29%

# (further entries)
SMILES,Vaccinia Venus,Vaccinia mCherry
Cc1ccc(C)c(N2CCN(C(=O)Cn3ncn4cccc4c3=O)CC2)c1,u,-8%
O=C(CSc1nc2c([nH]c3ccccc32)c(=O)n1-c1ccccc1)N1CCOCC1,-2%&-2%,-2%&-9%
O=C1NC(=S)NC(=O)C1Cc1ccccc1O,-7%,-15%
CCCc1c(-c2cccc(Br)c2)ncn1Cc1cccc(-c2ccccc2)c1,-28%,u
CC[C@H](C)[C@@H](NC(=O)O[C@@H]1C(=O)c2cc(Br)ccc2O[C@H]1c1cccc(OC)c1)C(=O)OC,-16%,-22%
COC(=O)c1sc(NC(=S)NC(=O)c2ccccc2)nc1C,-5%,-9%
CCC(C)NC(=O)c1ccc(-n2c(=S)[nH]c3ccccc3c2=O)cc1 (stereo not given),-14%,-7%
CCOC(=O)c1sc(-c2ccccc2)cc1NC(=O)CSc1nnnn1C,-24%,-21%
O=C1c2cccc3cccc(c23)C(=O)N1CC1CCN(S(=O)(=O)c2ccccc2)CC1,0%,-7%
Cc1ccc(C)c(NC(=O)c2cc(=O)c3cc(C)cc(C)c3o2)c1,7%,-6%
COc1cc2nc(/C=C/c3ccc(N(C)C)cc3)sc2cc1SC,-15%,-30%
N#Cc1ccccc1NC(=O)C(=O)NCC1CCCN1S(=O)(=O)c1cccs1 (stereo not given),-12%,i
CCOCCCN(C(=O)Cn1nnc(-c2ccc(C)o2)n1)C(C(=O)NC1CCCC1)c1ccc(C)o1 (stereo not given),-23%,-27%
O=C(COc1ccccc1C(=O)Nc1ccccc1)Nc1ccccc1-c1ccccc1,-23%,-28%
CCN(C(=O)c1cc2c(s1)-c1ccccc1S(=O)(=O)C2)c1cc(OC)ccc1OC,-11%,-14%
O=C(Cn1cnc2c(nnn2-c2ccccc2)c1=O)NCc1ccco1,4%,-7%
CCCCCc1nc2c(c3c1CCCC3)CCCC2,-12%,i
COCCn1c(CN(Cc2ccccc2)Cc2ccccc2)nc2c1c(=O)n(C)c(=O)n2C,0%,27%
Cc1ccccc1NC(=O)/C(C#N)=C\c1ccsc1,-15%,-17%
O=P(CO)(Cc1ccccc1)Cc1ccccc1,-5%,x
CCN(CCO)C(=O)CC(c1ccccc1)c1cc(Br)ccc1O (stereo not given),u,x
Cc1ccc(OCc2nc3ccccc3n2CCOc2ccc(Cl)cc2)cc1,-22%,-28%
CC(C)(C)c1nc2cc(Cl)c([N+](=O)[O-])cc2o1,u,u
Cc1ncc([N+](=O)[O-])n1Cc1ccccc1F,-2%,i
CC1CCCN(c2ccc(C(=O)N3CCC4(CC3)OCCO4)cc2[N+](=O)[O-])C1 (stereo not given),1%,i

# In the list so far, 3 have bromine:
SMILES,Vaccinia Venus,Vaccinia mCherry
CCCc1c(-c2cccc(Br)c2)ncn1Cc1cccc(-c2ccccc2)c1,-28%,u
CC[C@H](C)[C@@H](NC(=O)O[C@@H]1C(=O)c2cc(Br)ccc2O[C@H]1c1cccc(OC)c1)C(=O)OC,-16%,-22%
CCN(CCO)C(=O)CC(c1ccccc1)c1cc(Br)ccc1O (stereo not given),u,x

# (cont.)
SMILES,Vaccinia Venus,Vaccinia mCherry
C=CCNc1nnc(SCC(=O)N2CCCCC2)c2ccccc12,2%,-22%
Cc1ccc(NS(=O)(=O)c2cccc(C(=O)NCCCN3CCOCC3)c2)cc1,-13%,i
Cn1nnc2cc(C(=O)NC(C)(C)C)ccc21,-6%,-11%
CC1C(=O)NC(=O)C1c1ccccc1 (stereo not given),-7%,-11%
NC(=O)c1cccc2ccccc12,-19%,-24%
Cc1cccc2c3c([nH]c12)C(=O)CC(C)(C)S3,-17%,-6%
O=C(CC1NCCc2ccccc21)Nc1ccc(Cl)cc1 (stereo not given),-3%,4%
COc1ccccc1N1CCN(C(=O)Cc2c(C(=O)O)[nH]c3ccc(Cl)cc23)CC1,-10%,-13%
C[C@H]1CCC(=O)N([C@H](COc2ccccc2)Cc2ccccc2)CC1,-12%,i
Cc1ccccc1CC(=O)N1CCN(S(=O)(=O)c2ccc(Cl)s2)CC1,-13%,-7%
N#CCCN(C(=O)CN1CCN(S(=O)(=O)c2ccc3c(c2)OCCO3)CC1)c1ccc(F)cc1,-18%,i
O=C(CSc1nc(=O)n(Cc2ccncc2)c2c1CCC2)Nc1ccc(F)cc1F,-11%,-1%
COc1ccccc1C(=O)N1c2ncnn2C2(CCCCC2)[C@@H]2CCCC[C@@H]21,-6%,-13%
COc1cc(OC)c(C(=O)OCC(=O)NC23CC4CC(CC(C4)C2)C3)cc1OC,-25%,-26%
COc1ccc(-n2c(N)cc(=O)[nH]c2=O)cc1,-12%[7.34 µM],-3%[7.34 µM]
O=C(c1ccco1)c1cn(CC(=O)N2CCCCC2)c2ccccc12,-8%,-6%
O=C(c1ccco1)N1CCN(Cc2cc(=O)c(OCc3ccccc3F)co2)CC1,-7%,i
COc1cccc(C(=O)NC2CCCc3c2cnn3-c2cc(C)cc(C)c2)c1 (stereo not given),-5%,i
O=c1cccc2n1CC1CC2CN(c2ncnc3c2cnn3-c2ccc(Cl)cc2)C1 (stereo not given),-13%,i
O=C(Cn1c(=O)n(-c2ccc(Cl)cc2)c(=O)c2c3c(sc21)CCCCC3)Nc1cccc(Cl)c1,0%,-6%
O=C1CCN(S(=O)(=O)c2ccccc2)CCN1CCOCc1ccc(F)cc1,-12%,-29%
COc1cccc(-c2nc(C(N)=O)c3[nH]c(=O)n(-c4ccccc4)c3n2)c1OC,-19%,i
O=C(Nc1ccc2nc(SCC(=O)N3CCOCC3)sc2c1)c1cccc(F)c1,-3%,4%
Cc1ccc(C(=O)Nc2nc(C(N)Cc3ccc(C(F)(F)F)cc3)cs2)cc1 (stereo not given),-16%,-17%
COc1ccc(OC)c(-c2cc(Cl)c3c(c2)CC(CNC(=O)C(C)N2CCOCC2)O3)c1 (stereo not given),8%,-11%

# Following part
SMILES,Vaccinia Venus,Vaccinia mCherry
Cc1ccc(NC(=O)CS(=O)CC(=O)N(CC(=O)NC2CCCC2)c2cc(C)ccc2C)cc1 (stereo not given),-9%,-13%
O=C(Nc1ccccc1)C1CC2CCC1C2 (stereo not given),5%,-8%
CCC1CN(C(=O)Nc2ccccc2C(F)(F)F)c2ccccc2O1 (stereo not given),-3%,-8%
O=C(c1ccncc1)N1CCN(S(=O)(=O)c2cc(C(F)(F)F)cc(C(F)(F)F)c2)CC1,-23%,-5%
O=c1cc(NC2CCCCC2)c2ccccc2o1,-19%,-8%
Cc1ccc(C(O)c2ncc(-c3ccc4ccccc4c3)[nH]2)cc1F (stereo not given),-4%,13%
CCC(=O)Nc1ccc2nc(C)n(CC(=O)Nc3ccccc3)c(=O)c2c1,-5%,-6%
CC(C)NC(=O)c1cnc(Sc2ncc(C(F)(F)F)cc2Cl)n1C,u,x
O=C(CN1C(=O)c2ccccc2S1(=O)=O)NC1CCCC1,-7%,-15%
COc1ccc(C(=O)COC(=O)c2ccc3c(c2)NC(=O)CS3)c(OC)c1,-17%,-20%
CC(C)CC(NC(=O)CNC(=O)C1O[C@@H]2OC(C)(C)O[C@@H]2[C@H]2OC(C)(C)O[C@@H]12)C(=O)O (stereo not given in full),-2%,i
CCOc1ccccc1NC(=O)NCc1ccc(F)cc1,1%,-11%
COc1ccccc1CNC(=O)c1cnn(-c2ccc(F)cc2F)c1C1CCN(C(=O)OC(C)(C)C)CC1,-12%,-11%
CCc1cc(C(=O)Nc2cnn(Cc3ccc(F)cc3)c2)no1,7%,0%
Cc1ccc(CN2CCNC(=O)C2CC(=O)N(C)CCc2cnn(C)c2)cc1 (stereo not given),-5%,i
COc1ccc(C2C(C(=O)Nc3cccnc3)=C(C)Nc3nc(SCc4ccccc4)nn32)cc1 (stereo not given),3%,0%
Cc1sc2nc3c(C(=O)N4CCCC4)cc(C(=O)c4ccccc4O)cn3c(=O)c2c1C,-4%,-6%
Cc1nc2ncnn2c(C)c1Cc1cccc(F)c1,-9%,-19%
CCOC(=O)CSc1nnc(-c2cccc(Br)c2)o1,0%,-8%
COC(=O)CNC(=O)COC(=O)c1cc(F)c(F)cc1Cl,-9%,-24%
CC(=O)c1cccc(NC(=O)COc2cc3oc(=O)c(CC(C)O)c(C)c3cc2Cl)c1 (stereo not given),-23%,-2%
COc1ccc(NC(=O)CSCC(=O)N2c3ccccc3CCc3ccccc32)cc1,-22%,-9%
Cc1cccnc1NC(=O)C(C)N1C(=O)c2ccccc2C1=O (stereo not given),1%,-2%
CN1CCc2nc(SCCOc3ccccc3)c(C#N)cc2C1,-6%,i
O=C(Nc1ccc2c(c1)OCO2)c1cnc(Cl)c(Cl)c1,-6%,i

# Other structures
SMILES,Vaccinia Venus,Vaccinia mCherry
CC(C)Cn1nc(NC(=O)c2ccco2)c2cc3ccccc3nc21,-22%,-18%
Cc1c(Cl)cccc1NC(=O)CC(Cc1ccccc1)C(=O)O (stereo not given),-19%,i
CCCc1cc(=O)oc2cc(OCC(=O)Nc3cc(C)on3)ccc12,-9%,i
CCOc1ccc(CCNC(=O)c2nn(C)c3c2CSc2ccc(C)cc2-3)cc1OCC,-10%,u
Cc1ccc(NC(=O)O/N=C/c2c(C)nn(C(C)(C)C)c2C)cc1Cl,-12%,i
N#CC(C#N)=C(Nc1ccc(F)cc1)SCc1cccc(F)c1,u,u
COc1ccc2nc(NC(=O)CSc3n[nH]c(N)n3)sc2c1,-26%,u

# Molecules above containing an aryl thioether with sulfur outside any ring (13):
SMILES,Vaccinia Venus,Vaccinia mCherry
Cc1ccccc1NC(=O)CSc1nc2ccccc2c(=O)n1C,-16%,-13%
COC(=O)[C@]1(C)N[C@H](c2ccc(SC3CCCCC3)c(OC)c2)[C@@H]2C(=O)N(C)C(=O)[C@@H]21,-12%,-5%
O=C(CSc1nc2c([nH]c3ccccc32)c(=O)n1-c1ccccc1)N1CCOCC1,-2%&-2%,-2%&-9%
CCOC(=O)c1sc(-c2ccccc2)cc1NC(=O)CSc1nnnn1C,-24%,-21%
COc1cc2nc(/C=C/c3ccc(N(C)C)cc3)sc2cc1SC,-15%,-30%
C=CCNc1nnc(SCC(=O)N2CCCCC2)c2ccccc12,2%,-22%
O=C(CSc1nc(=O)n(Cc2ccncc2)c2c1CCC2)Nc1ccc(F)cc1F,-11%,-1%
O=C(Nc1ccc2nc(SCC(=O)N3CCOCC3)sc2c1)c1cccc(F)c1,-3%,4%
CC(C)NC(=O)c1cnc(Sc2ncc(C(F)(F)F)cc2Cl)n1C,u,x
COc1ccc(C2C(C(=O)Nc3cccnc3)=C(C)Nc3nc(SCc4ccccc4)nn32)cc1 (stereo not given),3%,0%
CCOC(=O)CSc1nnc(-c2cccc(Br)c2)o1,0%,-8%
CN1CCc2nc(SCCOc3ccccc3)c(C#N)cc2C1,-6%,i
COc1ccc2nc(NC(=O)CSc3n[nH]c(N)n3)sc2c1,-26%,u

# From PubChem
